Ecoli rRNA inh: selective bacterial rRNA inhibition in E. coli; E. coli WT GFP vs humanized-ribosome RFP mutants, fluorescence, 24 h; active compounds read low; DMSO median 0, no signal -100; GFP signal change (wild-type ribosome), % (test concentration not listed); 350,000 compounds, 1.6% hits;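 active means significant combined selectivity score with lowered wild-type GFP, culture density cut under 30%, mutant RFP and density less affected; inactive means any of these conditions unmet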; further: one replicate is shown; some compounds called inactive have numbers as strong as hits
AF4-AF9 inh: inhibitors of human MLL-AF4/AF9 interaction; 350,000 compounds, 0.47% hits; inhibition, % at 10 µM; P42568; AlphaScreen, biotin-AF4 peptide binding to FLAG-AF9;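 active means every replicate reaching a set inhibition limit, whatever the replicate mean, cut at about 25% in these data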;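 further: 0% = plate neutral control median and 100% = total signal loss; the record names both 10 and 1 µM as test concentration; the first replicate is given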
Target sequence (P42568 whole entry, looked up): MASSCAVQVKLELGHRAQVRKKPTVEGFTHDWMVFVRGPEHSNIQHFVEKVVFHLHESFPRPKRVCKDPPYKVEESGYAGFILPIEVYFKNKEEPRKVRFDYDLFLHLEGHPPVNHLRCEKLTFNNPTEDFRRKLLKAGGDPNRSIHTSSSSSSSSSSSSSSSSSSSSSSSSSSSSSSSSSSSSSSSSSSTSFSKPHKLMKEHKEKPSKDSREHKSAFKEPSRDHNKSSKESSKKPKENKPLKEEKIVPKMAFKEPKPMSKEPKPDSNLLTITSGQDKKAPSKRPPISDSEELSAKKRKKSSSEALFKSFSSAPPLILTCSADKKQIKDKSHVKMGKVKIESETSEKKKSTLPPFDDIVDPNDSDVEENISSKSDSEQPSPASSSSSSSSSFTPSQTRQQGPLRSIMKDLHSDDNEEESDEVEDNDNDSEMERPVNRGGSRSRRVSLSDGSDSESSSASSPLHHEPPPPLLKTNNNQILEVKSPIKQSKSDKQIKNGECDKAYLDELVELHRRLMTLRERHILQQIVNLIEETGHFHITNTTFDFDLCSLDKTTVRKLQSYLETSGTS
Ecoli rRNA inh OD600: second read-out of Ecoli rRNA inh, no call of its own (marks repeat the call); OD600 change, %; measured here: OD600 growth;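 optical density of the mix in the first replicate; 0 = DMSO median and -100 = no signal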
Ecoli rRNA inh RFP: also measured in Ecoli rRNA inh; calls as there; RFP signal change, %; measured here: RFP humanized mutant strains;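 first replicate; 0 = DMSO median and -100 = no signal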
Starred values were filed as active, the others as inactive. An excerpt. The share of hits here may be higher or lower than overall.

Screening Cc1cccc(-c2ccc([C@H]3[C@@H](CO)N4CCCCN(C(=O)NC(C)C)C[C@@H]34)cc2)c1 returned Ecoli rRNA inh -32, AF4-AF9 inh 0.0, Ecoli rRNA inh OD600 -37 and Ecoli rRNA inh RFP 4.9.
Screening Cc1noc(C)c1S(=O)(=O)N(C)C[C@@H]1Oc2ccc(NS(=O)(=O)c3ccc(Cl)cc3)cc2CC(=O)N([C@H](C)CO)C[C@@H]1C returned Ecoli rRNA inh -1, AF4-AF9 inh 8.3, Ecoli rRNA inh OD600 -3 and Ecoli rRNA inh RFP 0.0.
For COc1cccc(CNC(=O)C[C@@H]2C=C[C@@H](NC(=O)C3CCC3)[C@@H](CO)O2)c1 the results were Ecoli rRNA inh -2, AF4-AF9 inh -1.9, Ecoli rRNA inh OD600 -4 and Ecoli rRNA inh RFP -2.5.
`Cc1ccc(S(=O)(=O)Nc2ccc3c(c2)C(=O)N([C@@H](C)CO)C[C@@H](C)[C@@H](CN(C)Cc2ccc4c(c2)OCO4)OCCCC[C@H](C)O3)cc1` gave Ecoli rRNA inh 1, AF4-AF9 inh -0.5, Ecoli rRNA inh OD600 -30 and Ecoli rRNA inh RFP 23.
`CCCCCN(C(=O)CCC(=O)OCC(=O)N1CCCCC1CC)c1c(N)n(CCCC)c(=O)[nH]c1=O` (configuration not stated) gave Ecoli rRNA inh 1, AF4-AF9 inh 0.7, Ecoli rRNA inh OD600 8 and Ecoli rRNA inh RFP -1.2.
COc1ccccc1-c1cn(CC[C@@H]2CC[C@@H](NC(=O)c3ccccc3F)[C@H](CO)O2)nn1 was read as Ecoli rRNA inh -8, AF4-AF9 inh -3.4, Ecoli rRNA inh OD600 -12 and Ecoli rRNA inh RFP -0.6.
For CCNC(=O)[C@H]1[C@H](CO)[C@H]2Cn3c(ccc(-c4ccncc4)c3=O)[C@H]2N1Cc1cc(F)ccc1F the results were Ecoli rRNA inh 0, AF4-AF9 inh -3.2, Ecoli rRNA inh OD600 2 and Ecoli rRNA inh RFP -0.8.
For Cc1ccccc1-c1ccc2c(c1)O[C@@H](CN(C)Cc1ccc(C(=O)O)cc1)[C@H](C)CN([C@H](C)CO)S2(=O)=O the results were Ecoli rRNA inh -4, AF4-AF9 inh 6.3, Ecoli rRNA inh OD600 -2 and Ecoli rRNA inh RFP -3.2.
`C[C@H](O)[C@@H]1C(=O)N2CCc3ccc(N4CCOCC4)cc3[C@@H]2C[C@@H]1N(C)C(=O)Nc1ccccc1` gave Ecoli rRNA inh 11, AF4-AF9 inh -1.4, Ecoli rRNA inh OD600 21 and Ecoli rRNA inh RFP 1.5.
Screening C[C@H](CO)N1C[C@H](C)[C@H](CN(C)Cc2ccccc2C(=O)O)Oc2ncc(C3=CCCC3)cc2C1=O returned Ecoli rRNA inh 4, AF4-AF9 inh -5.2, Ecoli rRNA inh OD600 1 and Ecoli rRNA inh RFP -0.2.
`CN1C(=O)c2cc(NC(=O)c3ccccc3)ccc2OC[C@@H]2O[C@@H](CC(=O)NC3CCCC3)CC[C@H]21` gave Ecoli rRNA inh 1, AF4-AF9 inh -1.3, Ecoli rRNA inh OD600 4 and Ecoli rRNA inh RFP 0.4.
For CN1c2ccc(Br)cc2[C@@H]2[C@@H](CCN2C(=O)C2CCCC2)[C@@H]1CO the results were Ecoli rRNA inh -27, AF4-AF9 inh 7.2, Ecoli rRNA inh OD600 -68 and Ecoli rRNA inh RFP 0.0.
Screening CCCS(=O)(=O)NC(=O)C1(C)CCCN(C(=O)c2cccc(OC(F)(F)F)c2)C1 (configuration not stated) returned Ecoli rRNA inh 10, AF4-AF9 inh -2.4, Ecoli rRNA inh OD600 7 and Ecoli rRNA inh RFP 2.9.
C[C@H]1CN([C@@H](C)CO)C(=O)c2c(c3ccccc3n2C)-c2ccccc2CO[C@@H]1CN(C)C(=O)Nc1ccc2c(c1)OCO2 was read as Ecoli rRNA inh 0, AF4-AF9 inh -6.3, Ecoli rRNA inh OD600 0 and Ecoli rRNA inh RFP 0.2.
`C=CC[C@]12C[C@@]3(O[C@H](c4ccccn4)N=C3C[C@H](c3ccc(OC)cc3)[C@H]1C)N(C1CCN(Cc3ccccc3)CC1)C2=O` gave Ecoli rRNA inh -7, AF4-AF9 inh 13, Ecoli rRNA inh OD600 -12 and Ecoli rRNA inh RFP 10.
C[C@@H]1CN([C@@H](C)CO)C(=O)c2cc(NC(=O)CCN3CCOCC3)ccc2O[C@H]1CN(C)Cc1ccc(C(=O)Nc2ccccc2N)cc1 was read as Ecoli rRNA inh 0, AF4-AF9 inh -0.2, Ecoli rRNA inh OD600 2 and Ecoli rRNA inh RFP -2.3.
For COc1ccc(OCCN2CCC(C(=O)NC(c3ccsc3)c3ccccc3C)CC2)cc1 (configuration not stated) the results were Ecoli rRNA inh -25, AF4-AF9 inh 2.7, Ecoli rRNA inh OD600 -45 and Ecoli rRNA inh RFP -2.7.
`C[C@@H]1CN([C@H](C)CO)C(=O)c2cc(NC(=O)Nc3ccc4c(c3)OCO4)ccc2O[C@@H](C)CCCCO[C@H]1CN(C)S(=O)(=O)c1cccs1` gave Ecoli rRNA inh -2, AF4-AF9 inh 5.5, Ecoli rRNA inh OD600 -1 and Ecoli rRNA inh RFP -1.5.
For C[C@H](CO)N1C[C@H](C)[C@H](CN(C)C(=O)Cc2cccnc2)Oc2cc(C#Cc3ccccc3F)ccc2S1(=O)=O the results were Ecoli rRNA inh -9, AF4-AF9 inh 6.8, Ecoli rRNA inh OD600 -21 and Ecoli rRNA inh RFP 5.7.
For COC(=O)C1=C(C)NC(C)=C(C(=O)OC)C(N2C(=O)CCC2=O)C1 (configuration not stated) the results were Ecoli rRNA inh 0, AF4-AF9 inh 6.9, Ecoli rRNA inh OD600 -13 and Ecoli rRNA inh RFP 2.2.

Grouped by structure: the compounds so far with an aryl methoxy group.
For COc1cccc(CNC(=O)C[C@@H]2C=C[C@@H](NC(=O)C3CCC3)[C@@H](CO)O2)c1 the results were Ecoli rRNA inh -2, AF4-AF9 inh -1.9, Ecoli rRNA inh OD600 -4 and Ecoli rRNA inh RFP -2.5.
COc1ccccc1-c1cn(CC[C@@H]2CC[C@@H](NC(=O)c3ccccc3F)[C@H](CO)O2)nn1 was read as Ecoli rRNA inh -8, AF4-AF9 inh -3.4, Ecoli rRNA inh OD600 -12 and Ecoli rRNA inh RFP -0.6.
`C=CC[C@]12C[C@@]3(O[C@H](c4ccccn4)N=C3C[C@H](c3ccc(OC)cc3)[C@H]1C)N(C1CCN(Cc3ccccc3)CC1)C2=O` gave Ecoli rRNA inh -7, AF4-AF9 inh 13, Ecoli rRNA inh OD600 -12 and Ecoli rRNA inh RFP 10.
For COc1ccc(OCCN2CCC(C(=O)NC(c3ccsc3)c3ccccc3C)CC2)cc1 (configuration not stated) the results were Ecoli rRNA inh -25, AF4-AF9 inh 2.7, Ecoli rRNA inh OD600 -45 and Ecoli rRNA inh RFP -2.7.

Returning to the listing, repeating the two entries before the break.
For C[C@H](CO)N1C[C@H](C)[C@H](CN(C)C(=O)Cc2cccnc2)Oc2cc(C#Cc3ccccc3F)ccc2S1(=O)=O the results were Ecoli rRNA inh -9, AF4-AF9 inh 6.8, Ecoli rRNA inh OD600 -21 and Ecoli rRNA inh RFP 5.7.
For COC(=O)C1=C(C)NC(C)=C(C(=O)OC)C(N2C(=O)CCC2=O)C1 (configuration not stated) the results were Ecoli rRNA inh 0, AF4-AF9 inh 6.9, Ecoli rRNA inh OD600 -13 and Ecoli rRNA inh RFP 2.2.
Screening COC(=O)[C@]12C[C@H](CC(=O)N3CCN(C(=O)C4CC4)CC3)C(=O)N(Cc3ccc4c(c3)OCO4)C1=C[C@H](COCc1ccccc1)O[C@@H]2C returned Ecoli rRNA inh -14, AF4-AF9 inh 0.7, Ecoli rRNA inh OD600 -17 and Ecoli rRNA inh RFP 6.7.
For C[C@@H]1CN([C@@H](C)CO)C(=O)CCCn2nncc2CO[C@@H]1CN(C)Cc1ccccc1 the results were Ecoli rRNA inh -1, AF4-AF9 inh -2.3, Ecoli rRNA inh OD600 7 and Ecoli rRNA inh RFP -0.5.
COc1ccc2c3c([nH]c2c1)[C@H](CO)N(C(=O)Nc1ccc(F)cc1)CC31CCN(Cc2cc(F)ccc2F)CC1 was read as Ecoli rRNA inh -11, AF4-AF9 inh 3.5, Ecoli rRNA inh OD600 -36 and Ecoli rRNA inh RFP 36.
C[C@H](CO)N1C[C@H](C)[C@H](CN(C)C(=O)Nc2ccc(C(F)(F)F)cc2)OCCCC[C@H](C)Oc2ccc(NC(=O)Nc3ccc4c(c3)OCO4)cc2C1=O was read as Ecoli rRNA inh -1, AF4-AF9 inh -0.2, Ecoli rRNA inh OD600 -7 and Ecoli rRNA inh RFP 0.4.
Screening COc1ccc(NC(=O)c2cc(-c3cc(Cl)ccc3C)n[nH]2)cc1OC returned Ecoli rRNA inh -26, AF4-AF9 inh -2.4, Ecoli rRNA inh OD600 -57 and Ecoli rRNA inh RFP -2.1.
COc1ccc(NC(=O)C[C@H]2C(=O)N(c3ccc(Br)cc3)C[C@@H]2C)cc1 was read as Ecoli rRNA inh -1, AF4-AF9 inh -4.1, Ecoli rRNA inh OD600 -13 and Ecoli rRNA inh RFP 4.0.
CC(C)NC(=O)N(C)C[C@H]1Oc2c(NC(=O)NC3CCCCC3)cccc2C(=O)N([C@H](C)CO)C[C@H]1C was read as Ecoli rRNA inh 3, AF4-AF9 inh -1.9, Ecoli rRNA inh OD600 2 and Ecoli rRNA inh RFP -2.9.
`COc1ccc(NC(=O)N(C)C[C@@H]2OCc3ccccc3-c3ccccc3C(=O)N([C@H](C)CO)C[C@H]2C)c(OC)c1` gave Ecoli rRNA inh -1, AF4-AF9 inh 2.3, Ecoli rRNA inh OD600 3 and Ecoli rRNA inh RFP 1.3.
C[C@H]1CN([C@@H](C)CO)C(=O)c2cc(NC(=O)CCN3CCOCC3)ccc2O[C@@H]1CN(C)S(=O)(=O)c1cn(C)cn1 was read as Ecoli rRNA inh 4, AF4-AF9 inh -1.4, Ecoli rRNA inh OD600 4 and Ecoli rRNA inh RFP -0.1.
O=C(Nc1ccc(F)cc1)C(c1ccccc1)N1CCN(c2ccncc2)CC1 (configuration not stated) was read as Ecoli rRNA inh 18, AF4-AF9 inh -1.9, Ecoli rRNA inh OD600 12 and Ecoli rRNA inh RFP 0.3.
For CN1C(=O)c2cc(NC(=O)c3ccc(F)cc3)ccc2OC[C@@H]2O[C@H](CC(=O)NCC3CC3)CC[C@@H]21 the results were Ecoli rRNA inh -5, AF4-AF9 inh 0.8, Ecoli rRNA inh OD600 -8 and Ecoli rRNA inh RFP -1.6.
`CC(C)NC(=O)N[C@H]1C=C[C@@H](CC(=O)NCc2ccc(Oc3ccccc3)cc2)O[C@@H]1CO` gave Ecoli rRNA inh -2, AF4-AF9 inh -1.4, Ecoli rRNA inh OD600 -6 and Ecoli rRNA inh RFP -0.9.
C[C@H](CO)N1C[C@H](C)[C@H](CN(C)S(=O)(=O)c2ccc(Cl)cc2)OCCCC[C@H](C)Oc2ccc(NC(=O)NC3CCCCC3)cc2C1=O was read as Ecoli rRNA inh 1, AF4-AF9 inh -1.2, Ecoli rRNA inh OD600 -7 and Ecoli rRNA inh RFP -1.1.
Screening O=C(C1CCCC1)N1[C@H](CO)[C@H]2c3ccccc3N(S(=O)(=O)c3ccccc3)C[C@H]21 returned Ecoli rRNA inh -5, AF4-AF9 inh -1.2, Ecoli rRNA inh OD600 -10 and Ecoli rRNA inh RFP 1.4.
`COc1cccc(-c2cnc(C(O)c3ccc(Cl)cc3)[nH]2)c1` (configuration not stated) gave Ecoli rRNA inh -22, AF4-AF9 inh 7.4, Ecoli rRNA inh OD600 -46 and Ecoli rRNA inh RFP -6.9.
COc1ccc(C(=O)C[C@@H]2OC[C@H](C(C)C)N2S(=O)(=O)c2ccc(C)cc2)cc1OC was read as Ecoli rRNA inh -1, AF4-AF9 inh -1.4, Ecoli rRNA inh OD600 0 and Ecoli rRNA inh RFP 2.5.
Screening CC(C)n1nnnc1C1c2ccccc2C(=O)N1Cc1cccnc1 (configuration not stated) returned Ecoli rRNA inh 24, AF4-AF9 inh -1.0, Ecoli rRNA inh OD600 18 and Ecoli rRNA inh RFP 4.3.
`CCC(=O)N(C)C[C@@H]1Oc2cc(-c3ccccc3F)ccc2S(=O)(=O)N([C@@H](C)CO)C[C@@H]1C` gave Ecoli rRNA inh -3, AF4-AF9 inh -0.8, Ecoli rRNA inh OD600 8 and Ecoli rRNA inh RFP -0.9.
`COc1cccc(NC(=O)C[C@H]2CC[C@H]3[C@H](COc4ccc(NC(=O)C5CC5)cc4C(=O)N3C)O2)c1` gave Ecoli rRNA inh 0, AF4-AF9 inh 1.7, Ecoli rRNA inh OD600 6 and Ecoli rRNA inh RFP -1.0.
Screening C[C@H](CO)N1C[C@H](C)[C@H](CN(C)C(=O)Nc2ccc3c(c2)OCO3)Oc2ccc(NS(=O)(=O)c3ccc(F)cc3)cc2C1=O returned Ecoli rRNA inh 4, AF4-AF9 inh 0.1, Ecoli rRNA inh OD600 2 and Ecoli rRNA inh RFP -0.6.
For CCS(=O)(=O)Nc1ccc2c(c1)C(=O)N(C)C[C@H](OC)[C@@H](C)CN(CCC(F)(F)F)[C@H](C)CO2 the results were Ecoli rRNA inh -10, AF4-AF9 inh 2.5, Ecoli rRNA inh OD600 -17 and Ecoli rRNA inh RFP 2.8.
`CCCCCNC(=O)C(c1cc2ccccc2o1)n1c(=O)c(-c2cc3ccccc3[nH]2)nc2ccccc21` (configuration not stated) gave Ecoli rRNA inh 12, AF4-AF9 inh -20, Ecoli rRNA inh OD600 14 and Ecoli rRNA inh RFP -0.7.
